# Compound activity as filed in PubChem BioAssay.
# MITF inhib: MITF inhibition; inhibition, % (test concentration not listed); TRPM1 promoter luciferase, luminescence, 24 h; actives 0.28% (n = 37,000); AID 2240;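 active means most replicates at 85% or more, or half of them and the mean; inconclusive means half reach 85% but not the mean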;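 further: human melanocyte line stably carrying TRPM1 promoter luciferase reporter; 0% = vehicle wells and 100% = a positive control; the first replicate is given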
# PD-1 reverse act: activators reversing PD-1 mediated T-cell inhibition. primary human CD4 T cells, PD-L1 beads, CellTiter-Glo 96 h. activation, % (test concentration not listed). 29,000 tested, under 10 active;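 active means replicate mean of 50% or more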;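 further: 0% = median vehicle wells and 100% = positive control; 100 nL library stock added to about 50 µL; numbers are from one replicate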
# Shh pathway inh: blocks Sonic Hedgehog signaling | inhibition, % (no concentration beside the values) | actives 2.1% (n = 22,000) | Shh-LIGHT2 Gli-luciferase reporter, 30 h;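 active means replicate mean of 65% or more; inconclusive means mean lower but half the replicates past it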;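 further: pathway switched on by Shh-conditioned medium diluted 1 in 25 in low serum; 100 nL library stock added to about 40 µL; 0% = median of neutral wells and 100% = positive control level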
# YB-1 expression: YB-1 expression inhibition | U2OS, qRT-PCR YB-1 vs CDIP delta delta Cp, 16 h; hits give high values; zero = DMSO, each unit about twofold | delta delta Cp (YB-1 minus CDIP) (no concentration beside the values) | actives 0.37% (n = 30,000) | AID 434959;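 active means delta delta Cp rounded down to an integer at or above 3, about 3 SD of DMSO wells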;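 further: higher means less YB-1 transcript or more CDIP transcript relative to DMSO; stock transfer was 100 nL into about 100 µL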
# Starred values were filed as active, the others as inactive; u = inconclusive; x = not tested or not shown. Only part of the results is shown, so the mix of outcomes need not match the whole.
SMILES,MITF inhib,PD-1 reverse act,Shh pathway inh,YB-1 expression
C[C@H](CO)N1C[C@H](C)[C@H](CN(C)S(=O)(=O)c2ccc(Cl)cc2)Oc2c(NC(=O)c3ccncc3)cccc2C1=O,-10.2,-0.4,110.7*,-1.27
C[C@@H]1CN([C@@H](C)CO)C(=O)c2cc(N(C)C)ccc2O[C@H]1CN(C)C(=O)Nc1ccccc1,-0.3,x,8.6,-0.201
C[C@H](CO)N1C[C@H](C)[C@@H](CN(C)Cc2ccc(-c3ccccc3)cc2)Oc2c(NC(=O)c3ccncc3)cccc2C1=O,33.7,-1.7,63.8,0.0637
O=C(O)CN(c1cccc(Br)c1)S(=O)(=O)c1ccccc1,-36.4,0.5,x,x
COc1cccc(CNCCSc2nnnn2C)c1,-20.1,0.9,x,x
C[C@H](CO)N1C[C@H](C)[C@H](CN(C)Cc2ccc(C(=O)O)cc2)Oc2ccc(NC(=O)Nc3ccccc3)cc2C1=O,4.0,3.1,-8.8,-1.07
CN(CC(=O)Nc1ccccc1C(=O)N1CCCCC1)S(=O)(=O)c1ccc2ccccc2c1,26.8,0.4,x,x
C[C@H]1CN([C@@H](C)CO)C(=O)c2cc(NS(=O)(=O)c3ccc(Cl)cc3)ccc2O[C@H]1CN(C)Cc1ccc2c(c1)OCO2,-3.3,-0.2,u,-0.157
C[C@@H]1CN([C@@H](C)CO)C(=O)c2cccc(NC(=O)Nc3ccccc3)c2O[C@H]1CN(C)CC1CC1,0.5,1.5,-4.0,0.0604
C[C@H]1CN([C@@H](C)CO)C(=O)c2cccc(NC(=O)Nc3ccc(C(F)(F)F)cc3)c2O[C@H]1CN(C)CC1CC1,-0.3,0.5,-32.6,-0.374
COC(=O)c1ccc(NC(=O)CSC(=S)N2CCOCC2)cc1,6.5,3.8,67.9*,-0.0946
Cc1noc(C)c1NC(=O)N(C)C[C@@H]1Oc2ccc(NS(=O)(=O)c3cccs3)cc2C(=O)N([C@@H](C)CO)C[C@H]1C,-1.0,1.3,-11.8,-0.195

# Quoted at random: 2 entries already listed, in no set order.
SMILES,MITF inhib,PD-1 reverse act,Shh pathway inh,YB-1 expression
CN(CC(=O)Nc1ccccc1C(=O)N1CCCCC1)S(=O)(=O)c1ccc2ccccc2c1,26.8,0.4,x,x
C[C@@H]1CN([C@@H](C)CO)C(=O)c2cc(N(C)C)ccc2O[C@H]1CN(C)C(=O)Nc1ccccc1,-0.3,x,8.6,-0.201

# New compounds follow:
SMILES,MITF inhib,PD-1 reverse act,Shh pathway inh,YB-1 expression
CCc1nc(SCC(=O)Nc2ccc(Br)cc2)n[nH]1,-2.0,-1.4,x,x
O=C(Nc1ccc(S(=O)(=O)Nc2nccs2)cc1)C1CC(=O)N(c2ccccc2)C1 (stereo unspecified),9.6,1.6,x,x
Cc1noc(C)c1NC(=O)N(C)C[C@H]1Oc2c(NC(=O)C3CC3)cccc2C(=O)N([C@@H](C)CO)C[C@H]1C,0.3,-0.2,23.1,-0.348
Clc1ccccc1CNc1nc2ccccc2n1CCN1CCOCC1,-23.3,-0.9,x,x
N#Cc1c(-c2ccc3c(c2)OCO3)cc(-c2ccccc2O)[nH]c1=O,30.2,-1.4,x,-0.616
C[C@@H]1CCCCO[C@@H](CN(C)C(=O)c2ccncc2)[C@@H](C)CN([C@H](C)CO)C(=O)c2cc(NC(=O)c3ccncc3)ccc2O1,-0.1,x,0.8,0.233
C[C@@H]1CN([C@@H](C)CO)C(=O)Cc2cc(NC(=O)Cc3ccccc3)ccc2O[C@@H]1CN(C)Cc1ccc(Oc2ccccc2)cc1,41.7,x,28.1,-0.162
C[C@@H]1CCCCO[C@@H](CN(C)S(=O)(=O)c2cccs2)[C@@H](C)CN([C@H](C)CO)C(=O)c2cc(NS(C)(=O)=O)ccc2O1,-1.7,-1.3,66.8*,-0.253
CC(C)NC(=O)N(C)C[C@@H]1Oc2ccc(NS(C)(=O)=O)cc2C(=O)N([C@H](C)CO)C[C@@H]1C,2.7,x,x,-0.318
C=C(C)Cn1c(SCC(=O)O)nnc1-c1ccccc1,4.7,1.1,-12.5,0.292
C[C@H](CO)N1C[C@H](C)[C@@H](CN(C)Cc2ccc(-c3ccccc3)cc2)Oc2ccc(NS(=O)(=O)c3cccs3)cc2C1=O,2.0,x,12.3,0.09
CC(C)NC(=O)N(C)C[C@H]1Oc2ccc(NC(=O)CCCN(C)C)cc2C(=O)N([C@H](C)CO)C[C@H]1C,3.3,0.5,-2.9,-0.176
CCOc1ccc(NC(=O)Cn2cnc3scc(-c4ccc5ccccc5c4)c3c2=O)cc1,31.0,0.1,x,x
C[C@@H]1CN([C@H](C)CO)C(=O)c2cc(NS(=O)(=O)c3ccc(F)cc3)ccc2O[C@@H]1CN(C)Cc1ccc2c(c1)OCO2,11.2,0.6,20.7,0.229
CN(C)S(=O)(=O)c1ccc(C(=O)Nc2nc3c(s2)CCc2ccccc2-3)cc1,53.0,-1.5,x,-0.0241
C[C@@H]1CN([C@H](C)CO)C(=O)c2cccc(NC(=O)c3nc4ccccc4s3)c2O[C@H]1CN(C)C(=O)Nc1ccc(F)cc1,-0.7,x,41.3,-0.00599
C[C@H](CO)N1C[C@H](C)[C@H](CN(C)Cc2ccc(-c3ccccc3)cc2)Oc2c(NS(C)(=O)=O)cccc2C1=O,-12.5,1.6,-30.2,0.0579
COC(=O)C(Cc1c[nH]c2ccccc12)NS(=O)(=O)c1cccc2nonc12 (stereo unspecified),2.9,1.1,-22.5,0.201
CCn1c(SCC(=O)Nc2ccc(Cl)cc2Cl)nnc1-c1cc(Br)ccc1O,34.8,0.8,x,x
C[C@H](CO)N1C[C@H](C)[C@H](CN(C)CC2CCCCC2)Oc2c(NC(=O)C3CCCCC3)cccc2C1=O,0.0,1.7,1.1,1.91
NC(=O)c1c(NC(=O)c2ccc(COc3cc(Cl)ccc3Cl)o2)sc2c1CCCC2,7.3,0.1,x,x
C[C@H](CO)N1C[C@H](C)[C@H](CN(C)S(=O)(=O)c2cccs2)Oc2ccc(NS(=O)(=O)c3ccccc3)cc2CC1=O,-8.8,x,10.2,-0.236
O=C(O)c1ccc(CSc2n[nH]c(-c3ccco3)n2)cc1,-0.5,0.9,x,x
C[C@H](CO)N1C[C@H](C)[C@@H](CN(C)Cc2ccncc2)Oc2ccc(NS(C)(=O)=O)cc2C1=O,1.5,2.4,22.4,0.0319
Cc1noc(C)c1S(=O)(=O)Nc1ccc2c(c1)CC(=O)N([C@@H](C)CO)C[C@@H](C)[C@@H](CN(C)Cc1ccc3c(c1)OCO3)O2,-10.4,-1.5,-48.8,0.214
COC(=O)c1scc(C#N)c1N=CN(C)C,-0.7,3.3,-23.4,0.0879
CC(C)NC(=O)N(C)C[C@@H]1Oc2ccc(NC(=O)CCN3CCOCC3)cc2CC(=O)N([C@H](C)CO)C[C@H]1C,23.5,0.3,17.0,-0.434
OCc1ccccc1O[C@@H]1O[C@H](CO)[C@@H](O)[C@H](O)[C@H]1O,-7.2,0.2,6.6,0.614
CS(=O)(=O)N(CC(=O)Nc1cccc2ccccc12)c1ccc(F)c(Cl)c1,29.3,1.0,x,x
C[C@@H]1CCCCO[C@@H](CN(C)C(=O)Nc2ccc3c(c2)OCO3)[C@@H](C)CN([C@H](C)CO)C(=O)c2cc(NC(=O)c3ccncc3)ccc2O1,2.4,0.4,3.7,-0.483
COc1cccc(OCCNS(=O)(=O)c2cccc([N+](=O)[O-])c2)c1,5.9,0.4,x,x
C[C@@H]1CN([C@@H](C)CO)C(=O)c2cc(NC(=O)Cc3cn(C)c4ccccc34)ccc2O[C@H]1CN(C)Cc1ccc(C(=O)O)cc1,0.0,0.6,x,0.278
Cc1ccc(S(=O)(=O)Nc2ccc3c(c2)CC(=O)N([C@H](C)CO)C[C@@H](C)[C@@H](CN(C)C(=O)Nc2ccccc2)O3)cc1,-0.9,-0.3,x,-0.345
Cc1noc(C)c1S(=O)(=O)Nc1cccc2c1O[C@H](CN(C)Cc1ccc(C(=O)O)cc1)[C@H](C)CN([C@@H](C)CO)C2=O,7.0,1.6,15.7,0.572
Cc1ccc(S(=O)(=O)Nc2ccc3c(c2)CC(=O)N([C@H](C)CO)C[C@@H](C)[C@H](CN(C)C(=O)Nc2cccc4ccccc24)O3)cc1,-10.1,0.1,x,0.156
COc1ccc(/C=C/C(=O)Nc2ccc(N3CCOCC3)c(Cl)c2)cc1,9.1,0.8,23.1,-0.172
COC(=O)c1c(NC(=O)CSc2ncnc3sc(C)c(C)c23)sc(C)c1C,5.4,-0.5,x,x
CNC[C@H]1Oc2c(NC(=O)Nc3ccc(F)cc3)cccc2C(=O)N([C@@H](C)CO)C[C@H]1C,-9.0,1.3,5.2,0.148
Cc1ccc(S(=O)(=O)N(C)C[C@H]2Oc3c(NC(=O)c4nc5ccccc5s4)cccc3C(=O)N([C@@H](C)CO)C[C@@H]2C)cc1,5.3,x,2.6,-0.137
COc1ccc(S(=O)(=O)Nc2ccc3c(c2)C(=O)N([C@H](C)CO)C[C@H](C)[C@@H](CN(C)Cc2ccncc2)O3)cc1,-7.2,1.8,-19.8,0.285
COc1ccc(S(=O)(=O)Nc2ccc3c(c2)C(=O)N([C@H](C)CO)C[C@@H](C)[C@H](CN(C)Cc2ccc(C(=O)Nc4ccccc4N)cc2)O3)cc1,2.7,2.0,x,-0.0336
COc1ccc(CN(C)C[C@H]2OCCCC[C@@H](C)Oc3ccc(NC(=O)NC(C)C)cc3C(=O)N([C@H](C)CO)C[C@@H]2C)cc1,3.6,0.5,54.3,-0.0618
CC(C)NC(=O)Nc1cccc2c1O[C@H](CN(C)Cc1ccc(Cl)c(Cl)c1)[C@@H](C)CN([C@H](C)CO)C2=O,-5.4,-2.5,4.3,1.15
C[C@H]1CN([C@@H](C)CO)C(=O)c2cc(NS(=O)(=O)c3ccc(F)cc3)ccc2O[C@H]1CN(C)C(=O)Nc1ccc(F)cc1,3.7,-3.1,x,0.0326
COc1ccc(CN(C)C[C@@H]2Oc3ccc(NS(=O)(=O)c4ccc(OC)cc4)cc3CC(=O)N([C@@H](C)CO)C[C@@H]2C)cc1,-5.3,1.7,13.3,1.24
C[C@@H]1CN([C@H](C)CO)C(=O)c2cc(NS(=O)(=O)c3ccc(F)cc3)ccc2O[C@@H]1CN(C)S(=O)(=O)c1cn(C)cn1,-0.9,0.7,-10.8,0.114
CNC[C@H]1Oc2ccc(NC(=O)Cc3cn(C)c4ccccc34)cc2CC(=O)N([C@@H](C)CO)C[C@@H]1C,-1.6,-0.8,-42.3,-0.483
C[C@@H]1CN([C@@H](C)CO)C(=O)c2cccc(NC(=O)c3ccncc3)c2O[C@H]1CN(C)CC1CCCCC1,-1.2,0.2,-19.5,0.0559
Cc1noc(C)c1S(=O)(=O)N(C)C[C@@H]1Oc2ccc(N(C)C)cc2CC(=O)N([C@@H](C)CO)C[C@@H]1C,-14.0,-0.7,x,-0.0447
C[C@H]1CN([C@@H](C)CO)C(=O)c2cccc(NC(=O)Nc3ccc(C(F)(F)F)cc3)c2O[C@@H]1CN(C)Cc1ccc(Cl)c(Cl)c1,16.5,-4.6,-14.0,-0.0123
C[C@@H]1CN([C@H](C)CO)C(=O)Cc2cc(NC(=O)Nc3ccc4c(c3)OCO4)ccc2O[C@H]1CN(C)Cc1ccc(Oc2ccccc2)cc1,10.1,x,u,-0.267
COc1ccc(S(=O)(=O)Nc2ccc3c(c2)C(=O)N([C@H](C)CO)C[C@H](C)[C@H](CN(C)Cc2ccccc2)O3)cc1,-11.3,4.7,x,-0.0572
CNC[C@@H]1Oc2ccc(NC(=O)Cc3ccccc3)cc2C(=O)N([C@@H](C)CO)C[C@@H]1C,5.6,1.1,x,1.57
O=C1/C(=C\c2c[nH]c3ccccc23)C(c2ccccc2)Oc2ccccc21 (stereo unspecified),50.8,1.0,x,-0.102
C[C@H]1CN([C@@H](C)CO)C(=O)c2cc(NC(=O)CCN3CCOCC3)ccc2O[C@H]1CN(C)C,-2.0,0.0,x,-0.459
CC(C)c1ccc(NC(=O)CSc2nnc(-c3ccccc3Cl)n2C)cc1,53.0,-2.4,x,x
C[C@H]1CN([C@@H](C)CO)C(=O)c2cccc(NS(=O)(=O)c3ccccc3)c2O[C@H]1CN(C)Cc1ccc(C(=O)O)cc1,-2.5,0.7,-7.3,0.0385
C[C@@H]1CN([C@H](C)CO)C(=O)c2cc(NC(=O)Nc3ccc4c(c3)OCO4)ccc2O[C@@H]1CN(C)Cc1ccc2c(c1)OCO2,1.5,0.9,x,-0.295
C[C@H]1CN([C@@H](C)CO)C(=O)Cc2cc(NS(=O)(=O)c3cccs3)ccc2O[C@@H]1CN(C)C,-5.6,x,30.5,0.0669
CC(C)NC(=O)Nc1cccc2c1O[C@H](CN(C)C)[C@@H](C)CN([C@@H](C)CO)C2=O,2.8,x,13.1,-0.304
O=c1c(Cc2ccccc2)c(O)c2ccccc2n1-c1ccccc1,-15.2,0.0,5.3,-0.305

# Limited to YB-1 expression and MITF inhib, for 3 of the compounds above:
Compound	YB-1 expression	MITF inhib
O=C1/C(=C\c2c[nH]c3ccccc23)C(c2ccccc2)Oc2ccccc21 (stereo unspecified)	-0.102	50.8
C[C@H]1CN([C@@H](C)CO)C(=O)c2cc(NC(=O)CCN3CCOCC3)ccc2O[C@H]1CN(C)C	-0.459	-2.0
CC(C)c1ccc(NC(=O)CSc2nnc(-c3ccccc3Cl)n2C)cc1	x	53.0
